Screens from PubChem.
Prx2 Sm inh – Schistosoma Mansoni Peroxiredoxins (Prx2); Schistosoma mansoni peroxiredoxin 2 (Prx2); Potency, µM; AID 448, 2006; S. mansoni Prx2 activity coupled to TGR/GSH (TGR is thioredoxin glutathione reductase), NADPH fluorescence loss, qHTS; some inactives read as strong as hits; 65,000 compounds, 0.07% hits; active means full or partial inhibition curve with a strong effect at the top dose; inconclusive means weaker partial or single-point curve; inactive means no accepted curve; also: series up to 57 µM; many of its hits are not listed in these tables
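qHTS, coupled TGR/Prx2 format; 15 min compound preincubation at RT; reaction started with H2O2 (2.5 mM aliquot); kinetic NADPH fluorescence decrease, ex 365/em 450 nm.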
Anthrax LT inh – qHTS Assay for Anthrax Lethal Toxin Internalization | Cells, anthrax lethal toxin internalization, FRET ratio (460/530) | Potency, µM (doses to about 40 µM), for the others: top-dose activity change, negative = inhibition, usual class: inhibitors | 70,000 compounds, 0.67% hits | AID 912, 2007; active = well fitted falling ratio curve with the 530 nm signal flat; inconclusive = other ratio curves, or a change in one channel alone; inactive = flat curves in the ratio and both channels; the % refers to the ratio; also: % is scaled to controls: 0 for no effect and ±100 for the full control effect; nearly all actives have a fitted effect of over 50% in size; tested in ME-180 cells; beta-lactamase reporter
Active calls of the source: *; ? = inconclusive; . = not tested or not shown; & = joins results of further samples; [ ] = another dose, or the depositor's remark. Potency is read from the fitted curve at half-maximal effect. A portion of the library (hit frequency here may not be typical).

> CN1CCC(=C2c3ccccc3CCc3sccc32)CC1
  Prx2 Sm inh: >57	Anthrax LT inh: ?
> Nc1c2c(nc3ccccc13)CCC[C@H]2O
  Prx2 Sm inh: >57	Anthrax LT inh: -4%
> CC1=NN(c2ccccc2)C(=O)C1
  Prx2 Sm inh: >57	Anthrax LT inh: ?
> NS(=O)(=O)c1cc2c(cc1C(F)(F)F)N[C@H](Cc1ccccc1)NS2(=O)=O
  Prx2 Sm inh: >57	Anthrax LT inh: 8%[3.58 µM]
> O=C(Cn1ccnc1[N+](=O)[O-])NCCO
  Prx2 Sm inh: >57	Anthrax LT inh: -4%[3.58 µM]
> CC(=O)[C@@H]1CC[C@@H]2[C@@H]3C[C@H](C)C4=CC(=O)CC[C@@]4(C)[C@H]3[C@H](O)C[C@]21C
  Prx2 Sm inh: >57	Anthrax LT inh: ?
> CCCCCCCCO
  Prx2 Sm inh: .	Anthrax LT inh: -1%
> Cc1c(C(=O)O)c(O)cc2c1C(=O)c1c(O)c([C@H]3O[C@H](CO)[C@@H](O)[C@H](O)[C@H]3O)c(O)c(O)c1C2=O
  Prx2 Sm inh: .	Anthrax LT inh: -5%
> CCC1C(=O)OCC1Cc1cncn1C (centres undefined)
  Prx2 Sm inh: .	Anthrax LT inh: -14%
> O=C1N(c2ccccc2)c2ccccc2C1(Cc1ccncc1)Cc1ccncc1
  Prx2 Sm inh: >26&>57	Anthrax LT inh: -12%&-3%
> CN(C)CCCN1c2ccccc2Sc2ccccc21
  Prx2 Sm inh: >57&>26	Anthrax LT inh: 10µM*
> CN(C)CCCSc1ccccc1NC(=O)/C=C\c1ccccc1
  Prx2 Sm inh: >57	Anthrax LT inh: ?
> N=C(N=C(N)N)N1CCOCC1
  Prx2 Sm inh: >57&>57	Anthrax LT inh: ?
> CC(=O)O[C@]1(C(C)=O)CC[C@H]2[C@@H]3C=C(Cl)C4=CC(=O)[C@@H]5C[C@@H]5[C@]4(C)[C@H]3CC[C@@]21C
  Prx2 Sm inh: .	Anthrax LT inh: -7%
> CCCOc1ccccc1-c1nc2n[nH]nc2c(=O)[nH]1
  Prx2 Sm inh: >57&>57&>57	Anthrax LT inh: -16%
> CCN(CC)C[C@@H]1CCCCN1CC(=O)N1c2ccccc2C(=O)Nc2cccnc21
  Prx2 Sm inh: >57	Anthrax LT inh: ?
> COc1nc(C)nc(Cl)c1NC1=NCCN1
  Prx2 Sm inh: >57&>57	Anthrax LT inh: -16%
> O=C1NCC2(CCN(CCc3ccccc3)CC2)O1
  Prx2 Sm inh: >57&>57	Anthrax LT inh: -3%[3.58 µM]
> Cc1nnc(NS(=O)(=O)c2ccc(N)cc2)s1
  Prx2 Sm inh: >57	Anthrax LT inh: ?
> c1ccc2c(CC3=NCCN3)cccc2c1
  Prx2 Sm inh: >57	Anthrax LT inh: -4%[3.58 µM]
> O=C(O)CN1C(=O)c2cccc3cccc(c23)C1=O
  Prx2 Sm inh: >57	Anthrax LT inh: -7%
> CC(C)(C)NC[C@H](O)COc1cccc2c1C[C@@H](O)[C@@H](O)C2
  Prx2 Sm inh: >57	Anthrax LT inh: -4%[3.58 µM]
> Nc1cc(-c2ccncc2)c[nH]c1=O
  Prx2 Sm inh: >57	Anthrax LT inh: -10%[3.58 µM]

Whole records as entered above. Order of screens: Prx2 Sm inh, Anthrax LT inh
Results for CN(C)CCCSc1ccccc1NC(=O)/C=C\c1ccccc1 = >57, ?
Results for O=C1NCC2(CCN(CCc3ccccc3)CC2)O1 = >57&>57, -3%[3.58 µM]
Results for CC(C)(C)NC[C@H](O)COc1cccc2c1C[C@@H](O)[C@@H](O)C2 = >57, -4%[3.58 µM]

Copied from above (6 entries):
> CN1CCC(=C2c3ccccc3CCc3sccc32)CC1
  Prx2 Sm inh: >57	Anthrax LT inh: ?
> Nc1c2c(nc3ccccc13)CCC[C@H]2O
  Prx2 Sm inh: >57	Anthrax LT inh: -4%
> CC1=NN(c2ccccc2)C(=O)C1
  Prx2 Sm inh: >57	Anthrax LT inh: ?
> NS(=O)(=O)c1cc2c(cc1C(F)(F)F)N[C@H](Cc1ccccc1)NS2(=O)=O
  Prx2 Sm inh: >57	Anthrax LT inh: 8%[3.58 µM]
> O=C(Cn1ccnc1[N+](=O)[O-])NCCO
  Prx2 Sm inh: >57	Anthrax LT inh: -4%[3.58 µM]
> CC(=O)[C@@H]1CC[C@@H]2[C@@H]3C[C@H](C)C4=CC(=O)CC[C@@]4(C)[C@H]3[C@H](O)C[C@]21C
  Prx2 Sm inh: >57	Anthrax LT inh: ?
